# BJeLR viability: MLPCN primary cell-based screen for lethality selective to Ras in HRASV12 cells; BJeLR (HRASV12) viability, CellTiter-Glo ATP luminescence, 48 h; reference of the scale not given here; inhibition, % (concentration not given with the values); 0.17% of 300,000 active; AID 1554, 2009;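 active = replicate mean above 50%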;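 also: 50 nL library stock added to about 25 µL; numbers are from one replicate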
# Sa RN4220 lethal: growth inhibition of S. aureus RN4220, primary screen, OD600 | 16 h | 0.33% of 330,000 active | inhibition, % (no concentration beside the values);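 active = z-score of -3 or lower and OD600 up to 0.18 on both plates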;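 also: plate controls were untreated cells for no effect and reference antibiotic for full effect; stock transfer was 100 nL into about 80 µL; one replicate is shown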
# PrP 5UTR inh: inhibition of PrP 5' UTR reporter expression; cell-based PrP 5' UTR mRNA reporter, plate reader; inhibition, % (concentration not given with the values); 0.35% of 340,000 active;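 active = every replicate at 50% or more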;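 also: 0 = median of the neutral control wells; tested in H4 reporter cells; numbers are from one replicate; inactives centre near -14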
# Autofluor counter: flagged as autofluorescent in microsphere protease counterscreen | compound autofluorescence counterscreen, microsphere flow cytometry; hits give high values | fluorescence intensity (concentration not given with the values) | 3.1% of 360,000 active | AID 624483;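 active = at least 3 SD above the mean of all compounds, about 16000 in these data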;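 also: 100 nL of 1 mM stock went into each well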
# ugtP null kill: growth inhibition of ugtP-null S. aureus, primary screen, RN4220 ugtP deletion, OD600; 16 h; some inactives read as strong as hits; growth inhibition, % (test concentration not listed); 0.54% of 330,000 active; AID 1259309, 2017;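 active = z-score under -3 and OD600 up to 0.15 on both plates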;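 also: plate controls were untreated wells for no effect and antibiotic for full effect; wells of about 80 µL received 100 nL stock; the first replicate is given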
# Mtb hypoxia rep: PubChem AID 1159583 | M. tuberculosis hypoxia-regulated fluorescent reporter, fluorescence | 0.1% of 300,000 active | fluorescence inhibition, % (test concentration not listed);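 active = 35 to 45% if threefold the growth effect, above 45% if 1.5-fold the growth effect; inactive = the rest, general growth blockers included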;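 also: wells of about 50 µL received 100 nL stock; 0% = vehicle wells and 100% = reference inhibitor wells; whole bacteria with a GFP reporter of the hypoxia response; strong numbers were not always called active; many hits fall short of the cut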
# Mtb hypoxia rep growth: second read-out of Mtb hypoxia rep, no call of its own (marks repeat the call); growth inhibition, %; measured here: M. tuberculosis growth (absorbance);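 0% = vehicle and 100% = reference antibiotic; read after six days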
# Active calls of the source: *; · = no result given. An unsorted share of the library (roughly 4% active in at least one column).
cpd	Compound	BJeLR viability	Sa RN4220 lethal	PrP 5UTR inh	Autofluor counter
1	Cn1nc(C(=O)NNC(=O)COc2ccccc2)c2ccccc2c1=O	-3	6.9	-19	2260
2	CC(C)C(C)NC(=O)CN1C(=O)NC2(CCCCCC2)C1=O (configuration not stated)	12	1.9	-20	4243
3	CCOC(=O)c1c(-c2ccc(OC)cc2)oc2cc(Br)c(O)cc12	8	-3.6	3	3897
4	Cc1cc2nc(-c3ccc(SCc4ccccc4C#N)nc3)[nH]c2cc1C	5	-6.9	-32	9040
5	CC1CC(C)(C)CC2(C1)NC(=O)N(CC(=O)NCC(c1ccco1)N1CCCCC1)C2=O (configuration not stated)	1	1.7	-21	4685
6	COc1cc(CCCN2CCNCC2c2ccccc2)cc(OC)c1OC (configuration not stated)	·	-3.2	·	·
7	O=C(Nc1cccc(Cl)c1)NC1CC2CCC(C1)N2Cc1cccs1 (configuration not stated)	-2	-2.0	3	4442
8	CCOC(=O)C(C(=O)OCC)C1CCS(=O)(=O)C1 (configuration not stated)	7	-1.4	-1	3463
9	COc1ccccc1-n1c(SCC(=O)Nc2nnc(C)s2)nc2c(c1=O)SCC2	3	2.7	-9	11213
10	NC(=O)/C(=C\c1ccccc1)NC(=O)/C=C/c1ccccc1	-6	·	-24	2100
11	CC1=C(C(=O)Nc2cccc(C)c2C)C(c2cccs2)NC(=S)N1 (configuration not stated)	-21	1.0	-25	1898
12	CCn1c(SCC(=O)N/N=C/c2ccccc2OCC(=O)O)nnc1-c1ccc(C)cc1	-6	·	-11	4005
13	COc1c(S(=O)(=O)N2CCN(C)CC2)ccc(Cl)c1Cl	3	-1.6	-13	3925
14	CCCCCCCCN1[C@@H](CC(=O)OC)c2cc(C(F)(F)F)ccc2S1(=O)=O	-7	·	-11	4027
15	COC(=O)[C@@]12CCCCN1[C@H](c1ccc(-c3cccc(Cl)c3)cc1)[C@H]1C(=O)N(C)C(=O)[C@H]12	-16	·	-19	4715

cpd	ugtP null kill	Mtb hypoxia rep	Mtb hypoxia rep growth
1	15	11	0
2	0	-1	12
3	13	-15	-8
4	-18	-5	3
5	0	·	·
6	-6	0	4
7	4	-4	10
8	4	·	·
9	3	2	7
10	·	·	·
11	2	1	7
12	·	·	·
13	-5	-2	11
14	·	·	·
15	·	·	·

# (further entries)
cpd	Compound	BJeLR viability	Sa RN4220 lethal	PrP 5UTR inh	Autofluor counter
16	Nc1cnc(Nc2ccc(Br)cc2)nc1N	1	·	-62	3815
17	O=C(Nc1ccc(-c2ccc3nncn3n2)cc1)c1ccc(Br)o1	2	·	-19	6110
18	Cc1cccc(N(C(=O)c2sc(C)nc2C)C(C(=O)NCC2CCCO2)c2ccccc2)c1 (configuration not stated)	-9	4.2	-25	4933
19	Cc1ccc(C(=O)COC(=O)COc2ccccc2O)cc1C	·	12	-20	·
20	CCN(CC)S(=O)(=O)c1cccc(C(=O)OCC(=O)Nc2ccccc2OC(F)F)c1	2	-4.4	-27	8462
21	Cc1ccc(-c2nc(CS(=O)CC(=O)NC3CCCC(C)C3C)c(C)o2)cc1 (configuration not stated)	2	-2.7	3	4312
22	Fc1ccccc1Cn1nnc2c(NCc3ccccn3)ncnc21	5	-6.0	-21	4729
23	O=C(O)c1cnn2c(C(F)F)cc(C3CC3)nc12	-10	2.6	-21	7584
24	Cc1cc(C)n(C(=O)CNC(=O)c2ccc(Cl)cc2Cl)n1	-1	-2.5	-26	3723
25	Cc1ccccc1OCC(=O)N/N=C/c1ccncc1	-4	·	-3	2333
26	Cc1ccc(C)c(N2CCN(C(=O)c3ccc(N4CCCC4=O)cc3)CC2)c1	-4	9.1	-12	6787
27	Cc1cc(NC(=O)c2cc(Cl)ccc2Cl)no1	-1	-0.8	-22	5206
28	Cc1ccccc1C1NC(=S)NC2=C1C(=O)CCC2 (configuration not stated)	-10	15	-12	3897
29	Cc1ccc(CC2C(=O)N(c3ncccn3)C(=O)C2C)cc1 (configuration not stated)	-11	2.5	-21	5020
30	c1ccc2c(c1)OCC(CNCC1COc3ccccc3O1)O2 (configuration not stated)	-8	3.4	-17	4003

cpd	ugtP null kill	Mtb hypoxia rep	Mtb hypoxia rep growth
16	·	·	·
17	·	·	·
18	5	-1	7
19	1	5	6
20	-3	-6	-2
21	-9	4	1
22	2	·	·
23	0	1	-5
24	9	6	6
25	·	·	·
26	-7	2	7
27	5	4	12
28	8	-7	2
29	6	7	9
30	11	-2	7

# Following part
cpd	Compound	BJeLR viability	Sa RN4220 lethal	PrP 5UTR inh	Autofluor counter
31	CCC(=O)Nc1ccc(C(=O)Cn2ncc(Cl)c(Cl)c2=O)cc1	-5	·	-12	4004
32	Fc1cccc(Cl)c1CSc1ccc(-c2ccco2)nn1	-16	24	-69	4732
33	CC(C)(C)C1=NN(C(=O)c2ccccc2)C(O)(C(C)(C)C)C1 (configuration not stated)	7	7.4	-5	2747
34	Cc1ccc(-c2nnc(SC(C)C#N)n2N)cc1 (configuration not stated)	-2	-0.5	-23	9471
35	COCCn1c(SCC(=O)N2CCc3ccccc32)nc2c(c1=O)SC(C)C2 (configuration not stated)	-4	-9.8	-4	6199
36	CCOC(=O)C[N+]1(C)CCN(C(C)=O)CC1	-6	3.1	-19	4203
37	CC(CC1CC(C)(C)OC1=O)C(=O)Nc1nncs1 (configuration not stated)	16	0.2	-13	20331*
38	Cc1cc(C)n(-c2nc(C)nc3c2cnn3-c2ccccc2)n1	3	2.3	-17	11327
39	O=C(CSc1n[nH]c(-c2ccco2)n1)Nc1ccccc1	3	2.1	-11	6150
40	COCCNC(=S)NNc1ccccc1[N+](=O)[O-]	-4	1.7	-5	1828
41	C=CCN(C(=O)c1csnn1)C(C(=O)NCc1ccc(F)cc1)c1ccccc1F (configuration not stated)	-10	-2.9	-23	4039
42	CC1CN(c2ccc([N+](=O)[O-])nc2)CC(C)O1 (configuration not stated)	1	1.4	3	4474
43	CCCC(=O)Nc1nnc(-c2ccc3c(c2)OCO3)s1	-2	8.4	-58	3677
44	O=C(NCc1ccccc1)C1CCCN(c2nc3ccsc3c(=O)s2)C1 (configuration not stated)	-11	4.2	-26	3978
45	COc1cc2c(OC)cccc2cc1C(=O)O	-3	8.4	-20	7099

cpd	ugtP null kill	Mtb hypoxia rep	Mtb hypoxia rep growth
31	·	·	·
32	7	4	3
33	-3	12	8
34	-1	7	4
35	-4	-5	11
36	14	2	-2
37	4	4	-5
38	8	4	7
39	0	9	7
40	1	9	-9
41	2	7	-4
42	5	-1	9
43	7	6	8
44	11	8	3
45	15	9	-5

# Part of the list above, with each value named.
35) COCCn1c(SCC(=O)N2CCc3ccccc32)nc2c(c1=O)SC(C)C2 (configuration not stated)
  BJeLR viability = -4	Sa RN4220 lethal = -9.8	PrP 5UTR inh = -4	Autofluor counter = 6199	ugtP null kill = -4	Mtb hypoxia rep = -5	Mtb hypoxia rep growth = 11
36) CCOC(=O)C[N+]1(C)CCN(C(C)=O)CC1
  BJeLR viability = -6	Sa RN4220 lethal = 3.1	PrP 5UTR inh = -19	Autofluor counter = 4203	ugtP null kill = 14	Mtb hypoxia rep = 2	Mtb hypoxia rep growth = -2

# Next section:
cpd	Compound	BJeLR viability	Sa RN4220 lethal	PrP 5UTR inh	Autofluor counter
46	CCOC(=O)C1CCCN(Cc2nc(C3CC3)no2)C1 (configuration not stated)	0	3.8	-18	5839
47	CCNS(=O)(=O)c1ccc(CCC(=O)Nc2ccc3c(c2)OCCO3)cc1	-7	5.0	-14	3253
48	CN(C)c1ccc(C2SCCN2C(=O)c2ccc([N+](=O)[O-])cc2)cc1 (configuration not stated)	2	3.7	-16	2147
49	C=CCSc1cc(C)nc2c(-c3ccc(Cl)cc3)c(C)nn12	15	6.0	-8	20069*
50	Cn1cc(/C=C(\NC(=O)c2ccccc2Cl)C(=O)N2CCOCC2)c2ccccc21	-5	1.6	-14	5058
51	COc1ccc(C2C(=C(O)c3ccc(C)cc3)C(=O)C(=O)N2C)cc1 (configuration not stated)	·	1.0	·	·
52	NC(=O)C1CCN(C(=O)CSCc2ccccc2Cl)CC1	13	3.9	-15	3826
53	O=c1[nH]ncn2cccc12	-3	-10	-12	3673
54	CC(C)n1c(O)c(C=NCc2cccnc2)c(=O)[nH]c1=S	-6	1.6	-39	5754
55	COc1cc(OC)cc(C(=O)OCC(=O)Nc2ccc(N3CCCCC3)cc2)c1	-4	1.2	-9	5449
56	CC(NC(=O)c1ccccc1)C(=O)NN=Cc1ccccc1 (configuration not stated)	·	0.9	·	·
57	CC(=O)Nc1ccc(S(=O)(=O)NNC(=O)COc2cccc(C)c2)cc1	4	-7.3	4	2012
58	O=C(NN=Cc1ccccc1C(=O)O)c1cccc(S(=O)(=O)N2CCCCC2)c1	·	27	·	·
59	O=C(Nc1ccncc1)c1cncc(Br)c1	-3	6.8	0	6167
60	O=C(CN1CCOCC1)NN=Cc1ccc(-c2ccc(Br)cc2)o1	·	0.3	·	·

cpd	ugtP null kill	Mtb hypoxia rep	Mtb hypoxia rep growth
46	9	16	-1
47	2	-2	4
48	15	18	8
49	4	14	4
50	4	4	-4
51	2	1	10
52	-1	15	12
53	-1	23	8
54	4	-1	-1
55	6	·	·
56	-2	9	-1
57	-2	·	·
58	2	9	10
59	8	15	2
60	3	3	4

# Following part:
cpd	Compound	BJeLR viability	Sa RN4220 lethal	PrP 5UTR inh	Autofluor counter
61	Fc1ccc(CSc2nc3ncc(Br)cc3[nH]2)cc1	-2	4.9	-15	2498
62	COc1ccc(Cc2c(O)nc(SCC(=O)NC(C)(C)C)[nH]c2=O)cc1	4	11	-16	4929
63	COc1ccc(-c2nc(CSCC(=O)N3CCC4(CC3)OCCO4)c(C)o2)cc1OC	-8	-3.5	-56	5976
64	O=C(c1ccccc1)c1ccc(Oc2ccc(C(=O)O)c(C(=O)O)c2)cc1	-1	3.9	-13	3552
65	Cc1[nH]c2ccccc2c1C(=O)COC(=O)c1nccnc1N	·	7.0	-33	4822
66	O=C(CN1C(=O)/C(=C/c2ccccc2F)Oc2ccccc21)N1CCN(c2ccccn2)CC1	-13	3.7	-27	6410
67	COc1ccc(/C(N)=N/OC(=O)Oc2ccccc2)cc1OC	-3	-1.7	14	7251
68	COc1cc(NC(=O)CC(C)S(=O)(=O)c2ccc3c(c2)NC(=O)CO3)cc(OC)c1OC (configuration not stated)	-11	1.5	-4	4261
69	Cc1nn(C)c(NC(=O)c2ccccc2Cl)c1Cl	3	8.3	-24	3713

cpd	ugtP null kill	Mtb hypoxia rep	Mtb hypoxia rep growth
61	5	·	·
62	8	16	8
63	-3	-5	8
64	11	2	-13
65	-2	14	10
66	4	-1	6
67	0	-4	3
68	3	8	4
69	5	-6	2

# Structures shown so far containing fluorine (eight):
cpd	Compound	BJeLR viability	Sa RN4220 lethal	PrP 5UTR inh	Autofluor counter
14	CCCCCCCCN1[C@@H](CC(=O)OC)c2cc(C(F)(F)F)ccc2S1(=O)=O	-7	·	-11	4027
20	CCN(CC)S(=O)(=O)c1cccc(C(=O)OCC(=O)Nc2ccccc2OC(F)F)c1	2	-4.4	-27	8462
22	Fc1ccccc1Cn1nnc2c(NCc3ccccn3)ncnc21	5	-6.0	-21	4729
23	O=C(O)c1cnn2c(C(F)F)cc(C3CC3)nc12	-10	2.6	-21	7584
32	Fc1cccc(Cl)c1CSc1ccc(-c2ccco2)nn1	-16	24	-69	4732
41	C=CCN(C(=O)c1csnn1)C(C(=O)NCc1ccc(F)cc1)c1ccccc1F (configuration not stated)	-10	-2.9	-23	4039
61	Fc1ccc(CSc2nc3ncc(Br)cc3[nH]2)cc1	-2	4.9	-15	2498
66	O=C(CN1C(=O)/C(=C/c2ccccc2F)Oc2ccccc21)N1CCN(c2ccccn2)CC1	-13	3.7	-27	6410

cpd	ugtP null kill	Mtb hypoxia rep	Mtb hypoxia rep growth
14	·	·	·
20	-3	-6	-2
22	2	·	·
23	0	1	-5
32	7	4	3
41	2	7	-4
61	5	·	·
66	4	-1	6

# Compound activity (PubChem)
